Polio RdRp inh: inhibitors of poliovirus RNA polymerase binding and polymerization | P03300 | poliovirus polymerase elongation, fluorescence polarization; stronger effect = lower value | % elongation, % (compound at 16.7 µg/mL) | 150,000 tested, 0.66% active | AID 588519; in the data active means % elongation below about 90%; further: some results filed as inactive read as strong as hits
Target sequence (P03300 1749-2209 limits assumed): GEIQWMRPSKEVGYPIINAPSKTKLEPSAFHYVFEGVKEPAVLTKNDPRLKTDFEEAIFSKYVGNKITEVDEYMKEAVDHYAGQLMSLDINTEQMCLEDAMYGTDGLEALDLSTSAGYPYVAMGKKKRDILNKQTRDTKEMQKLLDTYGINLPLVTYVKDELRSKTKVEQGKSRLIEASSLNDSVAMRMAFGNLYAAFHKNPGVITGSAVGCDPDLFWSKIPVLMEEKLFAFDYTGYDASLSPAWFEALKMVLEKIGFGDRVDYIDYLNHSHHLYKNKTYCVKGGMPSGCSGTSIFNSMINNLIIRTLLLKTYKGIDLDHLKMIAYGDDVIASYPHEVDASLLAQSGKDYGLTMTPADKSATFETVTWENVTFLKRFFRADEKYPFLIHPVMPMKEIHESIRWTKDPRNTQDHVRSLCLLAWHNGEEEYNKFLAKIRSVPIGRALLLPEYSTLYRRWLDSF
Polio RdRp inh intensity: further read-out of Polio RdRp inh, marked with its call; % elongation; measured here: total intensity read-out; formula for this scale not given here;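 total fluorescence in place of polarization; lower means less elongation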
The depositor's hits bear a star. These rows are one share of the data; rates above refer to the full screens.

SMILES	Polio RdRp inh	Polio RdRp inh intensity
O=C(c1ccc2c(c1)N(Cc1cccc(Cl)c1)C(=O)c1ccccc1S2(=O)=O)N1CCCCCC1	103.0	110.0
CCCN(C(=O)c1cc2c(=O)[nH]c3ccc(C)cc3c2s1)c1ccc(CC)cc1	104.0	107.0
CS(=O)(=O)N1CCc2cc(C(=O)Nc3ccc(C(F)(F)F)cc3)ccc21	104.0	110.0
Cc1ccc(CN2CCSc3ccc(C(=O)Nc4ccc(C)cc4)cc32)cc1	100.0	101.0
COc1cccc(C(=O)c2cn(CC(=O)NCc3ccccc3Cl)c3nc(C)ccc3c2=O)c1	106.0	112.0
CCOc1ccc(-c2cc(C(=O)NCCc3ccc(OC)c(OC)c3)c3c(-c4ccc(F)cc4)[nH]nc3n2)cc1	104.0	113.0
CC(=O)c1cccc(NC(=O)CSc2nnc3ccc(-c4ccc(F)cc4)nn23)c1	109.0	112.0
Cc1ccc2[nH]c(CSc3nnc(NC(=O)c4ccccc4C)s3)cc(=O)c2c1	108.0	110.0
Cc1ccc(Nc2c3c(nc4nncn24)CCC3)c(C)c1	107.0	100.0
COc1ccc(NC(=O)Cn2c(=O)oc3cc(S(=O)(=O)NC4CCCC4)ccc32)cc1OC	104.0	101.0
Cc1nc(SCC(=O)Nc2nsc(-c3ccc(C(C)(C)C)cc3)n2)c2c3c(sc2n1)CCCC3	106.0	107.0
Cn1nc(C(=O)NCc2ccc(Cl)cc2)c2c1-c1ccccc1S(=O)(=O)C2	102.0	109.0
CCOc1ccc(CNC(=O)CCn2c(=O)c3cccn3c3cccnc32)cc1	100.0	105.0
Cc1ccc(C(=O)Nc2nc3n(n2)C(c2ccccc2)C=C(c2ccccc2)N3)cc1 (centres undefined)	107.0	155.0
CCOC(=O)C1(C)C=C(Nc2ccc(C)cc2)C(=O)N1c1ccccc1 (centres undefined)	118.0	119.0
CCc1ccc(NC(=O)[C@H](CSCc2ccccc2)N2Cc3ccccc3C2=O)cc1	104.0	107.0
CCOC(=O)COc1ccc(F)cc1C(=O)c1ccn2nc(-c3ccc(C)cc3)cc2n1	108.0	111.0
CCOC(=O)c1ccccc1NC(=O)COc1ccccc1-c1nnc(-c2ccccc2)o1	111.0	113.0
Cc1cc(N2CCC(C)CC2)nc2ccc(NC(=O)CCC(=O)N3CCN(c4cccc(C(F)(F)F)c4)CC3)cc12	105.0	106.0
Fc1ccc(C(Nc2ccccc2Cl)c2nnc(-c3ccccc3Cl)o2)cc1 (centres undefined)	111.0	112.0
CCN(CC)CCCNC(=O)c1nn(-c2ccc(C)cc2)c(=O)c2c1c1ccccc1n2C	103.0	107.0
CCC(C(=O)Nc1ccccc1F)N1C(=O)CN=C(c2ccccc2)c2ccccc21 (centres undefined)	111.0	112.0
CCC(C)Nc1sc(S(=O)(=O)CC)nc1S(=O)(=O)c1ccc(C)cc1 (centres undefined)	106.0	109.0
Cc1ccc(NC(=O)N2CCN3CCCCC3C2)cc1C (centres undefined)	109.0	110.0
Cc1cccc(C(=O)Nc2nc3c(s2)CCCC3)c1	107.0	106.0
CCc1ccccc1N(c1nc(-c2ccc(OC)c(OC)c2)no1)c1nc(-c2ccc(OC)c(OC)c2)no1	102.0	105.0
COCCCNC(=O)CCC(=O)NNc1nc2ccccc2c2nc(C)nn12	24.0*	39.0*
CCc1ccc(-n2c(N3CCN(c4ccc(F)cc4)CC3)nc3ccccc3c2=O)cc1	107.0	111.0
O=C(NCc1cccs1)c1ccc(CSc2nc3cccnc3n2Cc2ccccc2F)cc1	106.0	108.0
Cc1ccc(Cl)cc1NC(=O)CN1C(=O)CCc2ccccc21	112.0	110.0
O=C(CSc1nc2ccccc2n1Cc1ccccc1F)NCc1ccccc1	111.0	111.0
O=S(=O)(c1ccccc1)c1nc(-c2cccs2)oc1SCc1ccccc1F	109.0	115.0
CCc1ccc(C(=O)c2cn(CC(=O)Nc3ccc4c(c3)OCCO4)c3ccc(F)cc3c2=O)cc1	105.0	104.0
COc1cccc(NS(=O)(=O)c2ccc3c(c2)n(C)c(=O)n3C)c1	109.0	107.0
O=C(CCCCCn1c(=O)[nH]c2ccsc2c1=O)NCc1ccccc1	110.0	110.0
Cc1cc(C)cc(NC(=O)c2nnn(Cc3cccc(Br)c3)c2N)c1	102.0	103.0
O=C(NC1CCN(Cc2ccccc2)CC1)c1ccc(Cn2c(=O)c3ccccc3n(Cc3cccc(F)c3)c2=O)cc1	103.0	103.0
COc1ccc(Cl)cc1NC(=O)Cn1ncc2c3ccccc3n(Cc3ccccc3)c2c1=O	108.0	105.0
Brc1cccc(CNCCSc2nnnn2-c2ccccc2)c1	106.0	110.0
CC(=O)c1ccc(N2CCN(S(=O)(=O)c3ccc4c(c3)C(C)(C)C(=O)N4)CC2)cc1	104.0	109.0
CC(=O)N1CCOc2cc(S(=O)(=O)Nc3cc(C(F)(F)F)ccc3Cl)c(C)cc21	109.0	99.0
CC(C)(C)c1ccc(C(=O)Nc2cc(-c3nc4ccccc4o3)ccc2Cl)cc1	103.0	108.0
COc1cc(Br)ccc1C1C(C(=O)Nc2ccc(C)cc2C)=C(C)Nc2nnnn21 (centres undefined)	102.0	96.0
CCOC(=O)c1[nH]c(C)c(CCC(=O)N2CCN(c3ccccc3)CC2)c1C	110.0	110.0
Nc1c(-c2nc(-c3ccc4c(c3)OCO4)cs2)c2ccccn2c1C(=O)c1ccccc1	93.0	95.0
O=C(CC1(O)C(=O)N(CCc2ccccc2)c2ccc(Br)cc21)c1ccccc1 (centres undefined)	105.0	106.0
O=C(Nc1ccc(F)c(Cl)c1)c1cc(S(=O)(=O)N2CCCc3ccccc32)ccc1F	106.0	104.0
Cc1ccc(CNC(=O)CN2CCN(Cc3ccc(F)cc3)C2=O)cc1	110.0	115.0
COc1cccc(CNC(=O)C2CCN(c3nnc(-n4c(C)ccc4C)s3)CC2)c1OC	111.0	106.0
Cc1cccc(OCCCCn2nnc3sc4c(c3c2=O)CCC(C)C4)c1 (centres undefined)	107.0	108.0
COc1ccc(N(C(=O)/C=C\C(=O)Nc2ccc(Cl)cc2)C(C(=O)NCc2ccco2)c2ccc(C)cc2)cc1 (centres undefined)	104.0	99.0
C=CCc1cccc2cc(C(=O)Nc3cccc(Cl)c3)c(=O)oc12	110.0	111.0
COc1ccc(-n2nc(C(=O)N3CCN(c4cccc(C)c4C)CC3)c3c4ccccc4n(C)c3c2=O)cc1	114.0	108.0
CCOC(=O)c1ccc(N2C(=O)c3n[nH]c(-c4cccs4)c3C2c2ccc(C(C)C)cc2)cc1 (centres undefined)	103.0	103.0
COc1ccc(-c2nc3scc(CCNS(=O)(=O)c4c(C)noc4C)n3n2)cc1	102.0	109.0
O=C(CSc1oc(-c2ccccc2)nc1S(=O)(=O)c1ccc(Cl)cc1)NC1CCCCC1	99.0	103.0
CCOc1ccc(NS(=O)(=O)c2ccc3nc(-c4ccccc4)[nH]c3c2)cc1	111.0	109.0
CCOc1cccc(C(=O)N2CCC(c3nc4ccccc4s3)CC2)c1	111.0	112.0
COC(=O)c1cc(NC2(c3ccccc3)C(=O)c3ccccc3C2=O)cc(C(=O)OC)c1	102.0	109.0
COc1ccc(CNC(=O)Cn2c(=O)cc(C)c3c(C)nn(-c4cccc(Cl)c4C)c32)cc1	106.0	114.0

A second format for some results above:
mol | Polio RdRp inh | Polio RdRp inh intensity
Brc1cccc(CNCCSc2nnnn2-c2ccccc2)c1 | 106.0 | 110.0
CC(=O)c1ccc(N2CCN(S(=O)(=O)c3ccc4c(c3)C(C)(C)C(=O)N4)CC2)cc1 | 104.0 | 109.0
CC(=O)N1CCOc2cc(S(=O)(=O)Nc3cc(C(F)(F)F)ccc3Cl)c(C)cc21 | 109.0 | 99.0
CC(C)(C)c1ccc(C(=O)Nc2cc(-c3nc4ccccc4o3)ccc2Cl)cc1 | 103.0 | 108.0
COc1cc(Br)ccc1C1C(C(=O)Nc2ccc(C)cc2C)=C(C)Nc2nnnn21 (centres undefined) | 102.0 | 96.0
CCOC(=O)c1[nH]c(C)c(CCC(=O)N2CCN(c3ccccc3)CC2)c1C | 110.0 | 110.0
Nc1c(-c2nc(-c3ccc4c(c3)OCO4)cs2)c2ccccn2c1C(=O)c1ccccc1 | 93.0 | 95.0
O=C(CC1(O)C(=O)N(CCc2ccccc2)c2ccc(Br)cc21)c1ccccc1 (centres undefined) | 105.0 | 106.0
O=C(Nc1ccc(F)c(Cl)c1)c1cc(S(=O)(=O)N2CCCc3ccccc32)ccc1F | 106.0 | 104.0
Cc1ccc(CNC(=O)CN2CCN(Cc3ccc(F)cc3)C2=O)cc1 | 110.0 | 115.0
COc1cccc(CNC(=O)C2CCN(c3nnc(-n4c(C)ccc4C)s3)CC2)c1OC | 111.0 | 106.0
Cc1cccc(OCCCCn2nnc3sc4c(c3c2=O)CCC(C)C4)c1 (centres undefined) | 107.0 | 108.0
COc1ccc(N(C(=O)/C=C\C(=O)Nc2ccc(Cl)cc2)C(C(=O)NCc2ccco2)c2ccc(C)cc2)cc1 (centres undefined) | 104.0 | 99.0
C=CCc1cccc2cc(C(=O)Nc3cccc(Cl)c3)c(=O)oc12 | 110.0 | 111.0
COc1ccc(-n2nc(C(=O)N3CCN(c4cccc(C)c4C)CC3)c3c4ccccc4n(C)c3c2=O)cc1 | 114.0 | 108.0
CCOC(=O)c1ccc(N2C(=O)c3n[nH]c(-c4cccs4)c3C2c2ccc(C(C)C)cc2)cc1 (centres undefined) | 103.0 | 103.0
COc1ccc(-c2nc3scc(CCNS(=O)(=O)c4c(C)noc4C)n3n2)cc1 | 102.0 | 109.0
O=C(CSc1oc(-c2ccccc2)nc1S(=O)(=O)c1ccc(Cl)cc1)NC1CCCCC1 | 99.0 | 103.0
CCOc1ccc(NS(=O)(=O)c2ccc3nc(-c4ccccc4)[nH]c3c2)cc1 | 111.0 | 109.0
CCOc1cccc(C(=O)N2CCC(c3nc4ccccc4s3)CC2)c1 | 111.0 | 112.0
COC(=O)c1cc(NC2(c3ccccc3)C(=O)c3ccccc3C2=O)cc(C(=O)OC)c1 | 102.0 | 109.0

Further structures.
SMILES	Polio RdRp inh	Polio RdRp inh intensity
COc1ccc(NC(=O)CSc2oc(-c3ccco3)nc2S(=O)(=O)c2ccc(C)cc2)c(OC)c1	105.0	110.0
CCOC(=O)c1ccc(NC2=CC(c3ccc(Br)cc3)N(c3ccc(C(=O)OCC)cc3)C2=O)cc1 (centres undefined)	102.0	107.0
COc1ccc(-c2nc3ccccc3o2)cc1NC(=O)CSc1ccc(Cl)cc1	108.0	110.0
CC(C)(C)OC(=O)N1CCC(c2c(C(=O)NC3CCCCC3)cnn2-c2ccc(F)cc2F)CC1	112.0	108.0
CC1Cc2cc(S(=O)(=O)CCC(=O)Nc3ccc(F)cc3Cl)ccc2N1C(=O)C1CC1 (centres undefined)	110.0	110.0
CCc1ccc(NC(=O)c2cnc3sc(N4CCCC4)nn3c2=O)cc1	110.0	111.0
Cc1cc(NC(=O)CN2CCC(O)CC2)nc2c1c(=O)oc1ccccc12	109.0	99.0
CCCN(CCC)C(=O)Cn1c(=O)n(-c2ccc(CC)cc2)c(=O)c2ccc(C(=O)NCCc3ccccc3)cc21	107.0	111.0
COc1cccc(CNC(=O)C2CCN(C(=O)c3cnn(-c4ccccc4)c3-n3cccc3)CC2)c1	102.0	106.0
CC(C)NC(=O)c1ccc(Cn2c(SCC(N)=O)nc3ccccc3c2=O)cc1	105.0	112.0
CC(=O)c1cccc(NC(=O)C2CCN(c3nnc(-n4cccc4)s3)CC2)c1	105.0	107.0
COc1cccc(C(=O)NCC(c2ccc3c(c2)OCO3)N2CCOCC2)c1 (centres undefined)	101.0	89.0
CCOc1nc(NC(=O)NS(=O)(=O)Oc2cccc(Cl)c2)nc(-c2ccccc2)n1	104.0	107.0
Cc1sc2c(c1C)c(=O)n(CCc1ccccc1)c(=O)n2Cc1ccc(C(C)(C)C)cc1	110.0	114.0
CCOc1ccccc1CNC(=O)CCn1ccc2cc(S(=O)(=O)N3CCC(C)CC3)ccc21	107.0	108.0
O=S(=O)(c1ccccc1)c1nnn2c1nc(N1CCN(c3ccccc3)CC1)c1cc(Cl)ccc12	99.0	103.0
Cc1ccc(C)c(CNC(=O)c2sc3ncnc(N(C)C4CCCCC4)c3c2C)c1	97.0	104.0
CCN(C(=O)C(Cc1ccccc1)NS(=O)(=O)c1cccc2nsnc12)c1ccccc1 (centres undefined)	104.0	107.0
CCN(CC)C(=O)Cn1c(=O)n(CCCCCC(=O)NCc2ccccc2Cl)c(=O)c2sccc21	108.0	111.0
Cc1cc(C)cc(NC(=O)[C@H]2O[C@@H]3OC(C)(C)O[C@@H]3[C@H]3OC(C)(C)O[C@H]32)c1	105.0	110.0
COc1ccc(Cl)cc1NC(=O)Cn1c(=O)n(Cc2cccs2)c(=O)c2cccnc21	105.0	107.0
CCOC(=O)c1sc(NC(=O)C2c3ccccc3Oc3ccccc32)c(C(=O)OCC)c1C	100.0	98.0
COc1ccc(-c2cc(C(F)(F)F)n3nc(C(=O)Nc4sc5c(c4C(=O)OC(C)C)CCC(C)C5)cc3n2)cc1 (centres undefined)	106.0	114.0
COc1ccccc1N1CCN(S(=O)(=O)c2ccc(F)c(C(=O)Nc3ccc(C)c(F)c3)c2)CC1	104.0	108.0
Cc1ccccc1Cn1c2ccccc2c2cnn(CC(=O)NCc3cccc(Cl)c3)c(=O)c21	106.0	108.0
CCOc1ccc(CC(=O)Nc2c(C(=O)c3ccc(F)cc3)oc3ccc(Cl)cc23)cc1OCC	108.0	112.0
CCOC(=O)Cn1c(=O)n(CC2CCCO2)c2nc(-c3c(F)cccc3Cl)nc(C(N)=O)c21 (centres undefined)	109.0	110.0

Single records (already shown):
Cc1ccc(Nc2c3c(nc4nncn24)CCC3)c(C)c1 is entered as Polio RdRp inh: 107.0; Polio RdRp inh intensity: 100.0
O=C(NC1CCN(Cc2ccccc2)CC1)c1ccc(Cn2c(=O)c3ccccc3n(Cc3cccc(F)c3)c2=O)cc1 is entered as Polio RdRp inh: 103.0; Polio RdRp inh intensity: 103.0
